# Screening results: PubChem, Southern Research Institute
# Mtb growth: Confirmatory growth inhibition assay against Mycobacterium tuberculosis H37Rv, potency (AID 1949). most inactive calls were filed without a number and no value below 0 was filed. inhibition, % at 10 µg/mL; hits with a dose series show IC50 in µg/mL. 100,000 tested, 1.6% active;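 active = confirmed in a dose series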;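 note: bacteria grown 7 days with compound before Alamar blue readout; 0% = untreated bacteria and 100% = reference antibiotic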
# The depositor's hits bear a star; i = inactive. This is a subset; rates above refer to the full screens.
# The opening 3 compounds as a preview:
canonical_smiles	Mtb growth
COc1ccccc1NC(=O)C1CC(Cl)=CCC1C(=O)O (stereo not drawn)	i
COc1cc2c(cc1C)/C(=N/OC(=O)c1ccc(OC)c(OC)c1)CCC2	i
CCc1ccc(OCC(=O)Nc2cccc(NC(=O)c3cccs3)c2)cc1	i

# The whole of this part, from the start:
canonical_smiles	Mtb growth
COc1ccccc1NC(=O)C1CC(Cl)=CCC1C(=O)O (stereo not drawn)	i
COc1cc2c(cc1C)/C(=N/OC(=O)c1ccc(OC)c(OC)c1)CCC2	i
CCc1ccc(OCC(=O)Nc2cccc(NC(=O)c3cccs3)c2)cc1	i
COCCSc1nnc(NC(=O)CCCOc2ccc(Cl)cc2Cl)s1	i
CC(C)c1ccc(OCC(=O)NNC(=O)c2ccco2)c(Br)c1	i
CCc1cccc(CC)c1NC(=O)c1ccncc1	i
O=C(NC1c2ccccc2-c2ccccc21)c1ccccc1	i
COc1ccc2c(c1)c(C(=O)O)c(C)n2-c1ccc(Cl)cc1	i
Cc1sc(NC(=O)C2CCCO2)c(C#N)c1C (stereo not drawn)	i
CCC(=O)Oc1cccc(C(=O)Nc2cccc(C(F)(F)F)c2)c1	0%
CCOC(=O)c1ccc(NC(=O)CN2c3cccc4cccc(c34)S2(=O)=O)cc1	i
Cc1c(NC(=O)c2ccc(CN3CCc4ccccc4C3)cc2)c(=O)n(-c2ccccc2)n1C	i
COc1ccccc1NC(=O)c1ccc(COc2ccccc2Cl)cc1	i
Cc1nnc(NC(=O)c2cc(-c3ccc(Cl)c(Cl)c3)oc2C)s1	i
COc1ccc(S(=O)(=O)N(CC(=O)NC2CCCCCC2)c2cc(C)cc(C)c2)cc1OC	i
CC(=O)NC1C(=O)N(C(C)C)c2ccc(C)cc21 (stereo not drawn)	i
O=C(Nc1ccc(Cl)cc1)N1CCCC1	i
COc1ccc(C(=O)NC(=S)Nc2cccc(C(C)=O)c2)cc1	i
Cc1cc2nc(SC3CC(=O)N(c4ccc(F)cc4)C3=O)nc(C)c2cc1C (stereo not drawn)	i
O=C(NC(=S)Nc1ccccc1N1CCOCC1)c1cccc2ccccc12	i
CC(=O)c1ccccc1OCCCCN1CCOCC1	i
N#Cc1ccc(-c2ccc(OCC(=O)Nc3ccc(Cl)cc3Cl)cc2)cc1	i
COCCNC(=O)c1c(-c2ccccc2)noc1C	i
CN(C)C(=O)N1CCN(c2cccc(Cl)c2)CC1	i
COc1ccc(Oc2nnc(C)c3ccccc23)cc1	2%
CS(=O)(=O)N(CC(=O)N1CCc2ccccc2C1)c1cccc(F)c1	0%
CCCc1cc(=O)oc2cc(OCC(=O)Nc3ccc(C)cc3)c(Cl)cc12	i
COc1ccc2cc(Br)ccc2c1CC(=O)Nc1nccs1	i
O=C(NCc1ccc(Cl)c(Cl)c1)Nc1ccc2c(c1)OCO2	i
Cc1nc2oc(C(=O)c3ccccc3)c(N)c2c2c1COC(C)(C)C2	1%
Cc1c(-c2ccccc2)[n+](=O)c(-c2ccc(Cl)cc2)c(C)n1[O-]	i
N#C/C(=C\c1ccc(N2CCC(Cc3ccccc3)CC2)c([N+](=O)[O-])c1)c1nn(-c2ccccc2)c(N)c1C#N	6%
O=C(Nc1sc2c(c1C(=O)NCc1cccnc1)CCCCC2)c1ccccc1	7%
S=C(Nc1ccccc1)Nc1ccc2nsnc2c1	8%
Cc1occc1C(=O)Nc1ccc(Cl)cc1C(F)(F)F	i
CCN(CC)c1ccc(C=C(c2nnnn2-c2ccccc2)c2nnnn2-c2ccccc2)cc1	2%
CN(c1ccc(C(=O)NC2CCCCC2)cc1)S(=O)(=O)c1ccccc1	4%
CCOc1ccc(C(C)NC(=O)CCC(=O)O)cc1 (stereo not drawn)	i
Cn1c(Cc2cccs2)nnc1SCC(=O)N1CCc2ccccc21	i
COc1ccc(NC(=O)c2cc(-c3cccs3)nc3ccccc23)c([N+](=O)[O-])c1	i
Cc1cc(NS(=O)(=O)c2ccc(C3CCCCC3)cc2)no1	i
CCOc1ccccc1NC(=O)C1CCN(S(C)(=O)=O)CC1	i
COc1ccc(C(=O)NCCSCc2cccs2)cc1OC	i
Cc1ccccc1NC(=O)C(=O)NCCCN(C)C	i
CC(C)NC(=O)c1ccccc1NC(=O)Cc1ccc(F)cc1	4%
O=C(CSc1nnc(Cc2ccccc2)n1-c1ccccc1)c1ccc([N+](=O)[O-])cc1	i
COc1cccc(C(=O)NCCSc2ccc(C)cc2)c1	i
O=C(Nc1ccc(CN2CCCCC2)cc1)c1cccc2c(Br)cccc12	19%
COc1cc(CN(C2=NS(=O)(=O)c3ccccc32)c2ccc(Cl)cc2)ccc1O	i
COc1cccc(NC(=O)CNS(=O)(=O)c2cc(Cl)ccc2Cl)c1	i
COC(=O)c1ccc(NC(=O)C2CC2)cc1	i
Cc1cc2nn(-c3ccccc3)nc2cc1N	i
O=C(c1ccc(COc2ccccc2Br)o1)N1CCN(c2ccccc2)CC1	3%
COc1cccc(OC)c1C(=O)NC(=S)Nc1nc(-c2ccccc2)cs1	i
COc1ccc(C)cc1NC(=O)Nc1ccc(Br)cn1	1%
COc1cc(CN2CCN(Cc3ccccc3[N+](=O)[O-])CC2)cc(OC)c1OC	i
O=C(COc1ccc(Cl)cc1)Nc1ccc([N+](=O)[O-])cn1	20%
O=C1c2oc3ccc(Cl)cc3c(=O)c2C(c2ccc([N+](=O)[O-])cc2)N1Cc1ccc(F)cc1 (stereo not drawn)	i
CC1CCc2nc(NC(=O)CSc3nnc(-c4ccccc4)o3)sc2C1 (stereo not drawn)	12%
COc1cccc(NC(=O)CCN2C(=O)c3ccc([N+](=O)[O-])cc3C2=O)c1	i

# Next structures.
canonical_smiles	Mtb growth
Cc1ccccc1NC(=O)C12CCC(C)(C(=O)O1)C2(C)C (stereo not drawn)	i
O=C1c2cccc3c(N4CCCCC4)c([N+](=O)[O-])cc(c23)C(=O)N1c1cccc(O)c1	i
Cc1ccc(NC(=O)CCCc2ccccc2)cc1[N+](=O)[O-]	29%
COc1ccc(CN2CCN(C(=O)c3ccccc3F)CC2)c(OC)c1OC	i
CC1CC(C)CN(CCOCCOc2c(Cl)cccc2Cl)C1 (stereo not drawn)	1%
CCNCC1OCCc2ccccc21 (stereo not drawn)	i
COc1ccc(NC(=O)C2CCCN(S(=O)(=O)c3ccc(C)cc3)C2)cc1OC (stereo not drawn)	i
O=C(CCC(=O)c1ccc(Br)cc1)Nc1cccnc1	i
Cc1ccc(N(C)C(=O)N2CCN(c3ccccn3)CC2)cc1	i
COc1ccc(-c2cc(C(=O)NCCN3CCOCC3)c3ccccc3n2)cc1OC	i
CN(CC(=O)Nc1ccc(Cl)c(Cl)c1)S(=O)(=O)c1ccc(Cl)cc1	i
COc1cc(NC(=O)CN2C(=O)c3ccccc3C2=O)c(C(=O)O)cc1OC	i
CC1CCN(S(=O)(=O)c2ccc(C(=O)N3CCN(c4ccccc4F)CC3)cc2)CC1	2%
CC(C)NS(=O)(=O)c1ccc(OCC(=O)Nc2ccc(Cl)c(C(F)(F)F)c2)cc1	i
CC(C)CCNC(=O)CN(c1cccc(C(F)(F)F)c1)S(C)(=O)=O	i
COc1ccc(S(=O)(=O)N(CC(=O)N2CCOCC2)c2ccccc2)cc1OC	i
O=C(Nc1ccc2oc(-c3cccc(F)c3)nc2c1)c1ccco1	i
O=C(O)CC12CC3CC(C1)CC(c1ccccc1)(C3)C2	i
CC(C(=O)N1CCN(Cc2ccc3c(c2)OCO3)CC1)N1C(=O)c2ccccc2C1=O (stereo not drawn)	i
CCc1cccc(CC)c1NC(=O)Nc1cccc([N+](=O)[O-])c1	i
COc1cccc2cc(-c3nnc(SCC(=O)Nc4nc(-c5ccccc5)c(C)s4)n3C)oc12	2%
CCC(=O)c1ccc(OCC(O)CN2CCN(c3ccc(C)cc3C)CC2)cc1 (stereo not drawn)	i
O=C(Nc1ccccc1)N(Cc1cccs1)C1CCCC1	i
CC1CCc2nc(NC(=O)c3ccc(S(=O)(=O)N4CCCC4)cc3)sc2C1 (stereo not drawn)	i
COc1ccc(Cl)cc1NC(=O)CCSc1ccccc1	i
O=C(CSCc1ccccc1Cl)Nc1ccccc1C(=O)NCc1ccccc1	i
C=CCNCCCOc1ccccc1C(C)CC (stereo not drawn)	i
Clc1ccc(OCCN2CCCC2)c(Br)c1	i
COC(=O)c1ccccc1NC(=O)c1c(Cl)ccc(Cl)c1OC	i
CC1=C(C(=O)N2CCOCC2)C(c2ccccc2F)C2=C(CCCC2=O)N1 (stereo not drawn)	i
COC(=O)c1sc2ncn(CC(=O)OCc3ccccc3)c(=O)c2c1C	45%
O=C1N=c2ccccc2=C1c1sc(N2CCOCC2)nc1O	i
COc1cc(NC(=S)NCCO)cc(OC)c1	i
COc1cc(C=O)ccc1OCC(=O)N1CCC(C)CC1	i
Cc1cc(C)c(S(=O)(=O)Nc2c(C)n(C)n(-c3ccccc3)c2=O)cc1[N+](=O)[O-]	i
C=CCn1c(COc2ccc3c(c2)CCCC3)nnc1SCC(=O)Nc1cccc(SC)c1	i

# Next part (five carried over from the part before).
canonical_smiles	Mtb growth
O=C1N=c2ccccc2=C1c1sc(N2CCOCC2)nc1O	i
COc1cc(NC(=S)NCCO)cc(OC)c1	i
COc1cc(C=O)ccc1OCC(=O)N1CCC(C)CC1	i
Cc1cc(C)c(S(=O)(=O)Nc2c(C)n(C)n(-c3ccccc3)c2=O)cc1[N+](=O)[O-]	i
C=CCn1c(COc2ccc3c(c2)CCCC3)nnc1SCC(=O)Nc1cccc(SC)c1	i
CCOC(=O)c1ccc(NC(=S)Nc2ccccc2SC)cc1	i
COc1ccc(NC(=O)Cn2nc(-c3ccc(C)cc3)c3ccccc3c2=O)cc1	i
COc1ccc(C2NC(=S)NC(C)=C2C(=O)Nc2cc(OC)c(Cl)cc2OC)c(OC)c1 (stereo not drawn)	14%
COc1ccc(CNCc2cccc(OC)c2OC)cc1Br	i
CC1(c2ccccc2)CC(C)(C)N(C(=O)CSc2n[nH]c(-c3ccccc3)n2)c2ccccc21 (stereo not drawn)	7%
O=C(c1cc(Br)ccc1Cl)N1CCC2(CC1)OCCO2	2%
CCOc1cccc(C(=O)NNC(=S)NC)c1	i
CC(C)C(=O)NC(=S)Nc1ccccc1F	i
CN1C(=O)C(CC(=O)N2CCN(C(c3ccccc3)c3ccccc3)CC2)N(C)C1=O (stereo not drawn)	i
Cc1cc(S(=O)(=O)NC2CCCC2)ccc1F	i
COc1cccc(N2CC(C(=O)NNC(=O)c3ccc(Cl)cc3)CC2=O)c1 (stereo not drawn)	i
Fc1ccc(CSc2nnnn2-c2ccc3c(c2)OCO3)cc1	i
COc1ccc(CN2CCC(C(=O)N(CCc3ccccc3)Cc3ccccc3)CC2)c(OC)c1	4%
C=CCNC(=S)NC(=O)c1ccccc1Cl	i
Fc1ccc(-n2c(-c3cccs3)n[nH]c2=S)cc1	i
O=C(NCCc1ccccc1)C(=O)NCc1ccc(F)cc1	2%
O=C(c1cccc(S(=O)(=O)N2CCCC2)c1)N1CCN(c2ccccc2F)CC1	0%
Cc1ccc(-c2csc(Cc3nc(-c4cc5ccccc5oc4=O)cs3)n2)cc1	i
CCc1ccc(NC(=O)CN(c2ccc(I)cc2)S(C)(=O)=O)cc1	i
Nc1nc(-c2ccco2)nn1C(=O)c1ccccc1Cl	i
Cc1ccc(-c2csc(NC(=O)CN3C(=O)c4ccccc4C3=O)n2)cc1C	i
COc1cccc(N2C(=O)CC(N3CCN(CC(N)=O)CC3)C2=O)c1 (stereo not drawn)	i
c1ccc(Nc2nc(N3CCOCC3)c3ccccc3n2)cc1	5%
O=C(CSc1nnc(-c2ccccc2)n1-c1ccccc1)N1CCN(C(=O)c2ccccc2)CC1	i
O=C(C(=O)N1CCOCC1)c1c(-c2ccccc2)cc2ccccn12	2%
CC1(C)CC(NC(=O)c2ccccc2)CC(C)(CNC(=O)c2ccccc2)C1 (stereo not drawn)	i
CCOC(=O)Nc1sc(C)c(CC)c1C(=O)OCC	i
Cn1cc(I)c(C(=O)NNC(=S)Nc2ccc3c(c2)OCO3)n1	i
N#C/C(=C/c1ccc2c(c1)OCO2)c1ccc(Cl)c(Cl)c1	i
Cc1nnc(SCC(=O)Nc2cc(Cl)cc(Cl)c2)n1-c1ccccc1	i
COc1ccc2nc(NC(=O)c3ncn[nH]3)sc2c1	i
COc1cccc(C2C(C(=O)Nc3ccccc3)=C(C)Nc3nnnn32)c1OC (stereo not drawn)	i
O=C(CSc1nnc(C23CC4CC(CC(C4)C2)C3)o1)c1ccc(Br)cc1	1%
O=C(c1cc2ccccc2o1)N1CCc2ccccc21	5%
COc1ccc(S(=O)(=O)N2CCN=C2c2ccccc2)c2ccccc12	1%
O=C1NC(=O)C(CCc2ccncc2)(c2ccccc2)C(=O)N1	i
COc1ccccc1C(=O)Nc1ccc(S(=O)(=O)NC(C)(C)C)cc1	i
CCOC(=O)c1sc2ncn(Cc3ccc(CC)cc3)c(=O)c2c1C	5%
CCOC(=O)CNC(=O)CSc1nc(N2CCOCC2)nc(N2CCOCC2)n1	i
Cc1nnc(N2C(=O)c3ccc(C(=O)c4cccc([N+](=O)[O-])c4)cc3C2=O)s1	i
O=C(OCc1ccc2c(c1)OCO2)c1cccc(S(=O)(=O)N2CCCCC2)c1	5%
CS(=O)(=O)N(CC(=O)NC1CCCCCC1)c1ccc(Cl)cc1	i

# A different layout for part of the listing above:
CCOC(=O)c1sc2ncn(Cc3ccc(CC)cc3)c(=O)c2c1C
- Mtb growth: 5%
CS(=O)(=O)N(CC(=O)NC1CCCCCC1)c1ccc(Cl)cc1
- Mtb growth: i
